Bioassay records as filed in PubChem.
RE007 growth inh: less growth of the S. pombe RE007 Vpr strain; S. pombe RE007 Vpr strain, BacTiter-Glo ATP luminescence, 24 h; control for the full effect not named in the record; Potency, µM (highest dose often 92.2 µM), for inactives: at the highest dose activity change, negative = less growth; hit rate 0.21% among 360,000; active = well fitted falling curve with a large enough effect; inconclusive = small, poorly fitted or top-dose-only effect; inactive = no such curve, though single readings can be large or run the other way;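 note: % is set by controls: 0 for no effect and ±100 for the full control effect; nearly all actives have a fitted effect of over 50% in size; the assay follows cell death caused by Vpr and the record does not say whether a fall means rescue or toxicity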
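Fission yeast strain RE007, carrying one chromosomally integrated HIV-1 vpr copy, was seeded at OD 0.01 in PMG+AL medium with 23 nL pinned compound. After 24 h at 30 °C and 99% humidity, viability was read by BacTiter-Glo luminescence.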
SARS PLP yeast: inhibitors of SARS-CoV papain-like protease in yeast | Potency, µM (doses to about 32.9 µM), for the others: top-dose activity, positive = growth rescue | S. cerevisiae expressing SARS-CoV PLpro, growth rescue; control for the full effect not named in the record | hit rate 0.19% among 330,000 | AID 485353; active means well fitted rising curve with a large enough effect; inconclusive means small, poorly fitted or top-dose-only effect; inactive means no such curve, though single readings can be large or run the other way; note: 0% is about no effect; nearly all actives have a fitted effect of over 55% in size; growth read by luminescence after 48 h
StopGo reporter: FMDV 2A StopGo reporter, luciferase signal. Potency, µM (series often up to 57.9 µM), for inactives: top-dose signal change, negative = less light. human cells with a luciferase reporter of 2A StopGo recoding; control for the full effect not named in the record. hit rate 1.2% among 410,000; active = well fitted falling curve with a large enough effect; inconclusive = small, poorly fitted or top-dose-only effect; inactive = no such curve, though single readings can be large or run the other way; tested in HEK293T cells; note: % is set by controls: 0 for no effect and ±100 for the full control effect; nearly all actives have a fitted effect of over 45% in size; luciferase light after 4 h
* hit, by the source's call; ? = inconclusive; [ ] = remark or other dose. Potency is the fitted concentration of half-maximal effect.

SMILES | RE007 growth inh | SARS PLP yeast | StopGo reporter
O=C(O)c1n[nH]c2c1CC(C1CCCCC1)CC2 (stereo not drawn) | 3% | 4% | -21%
CC(C)c1ccc(/C=C2\Oc3c(ccc(O)c3CN3CCN(C)CC3)C2=O)cc1 | 6% | 3% | -15%
C/C(=N/Nc1ccnc2cc(Cl)ccc12)c1ccc(O)cc1 | -30% | 4% | 0%
C[C@@H]1[C@H](O)C[C@@]23COC(=O)C2=CCCC3[C@@]1(C)CCC1COC(=O)C1 (stereo partly drawn) | 2% | 5% | 0%
CCCNC(=O)C(Cc1ccccc1)NC(=O)Cc1ccccc1 (stereo not drawn) | -3% | 2% | -4%
COC(=O)[C@@]12CCCCN1[C@H](c1ccc(SC3CCCCC3)cc1)[C@H]1C(=O)N(C)C(=O)[C@H]12 | 11% | 1% | ?
O=C(CSc1ccsc1[N+](=O)[O-])Nc1cc(F)ccc1F | 2% | -2% | 37%[activator]
Oc1c(N=NC(=S)Nc2ccccc2F)c2ccccc2n1Cc1ccccc1 | 8% | -1% | -19%
Cc1ccc(S(=O)(=O)N2[C@@H](c3ccc(F)cc3)C(C(=O)O)=CC[C@H]2c2ccc(C(C)C)cc2)cc1 | 9% | -2% | -17%
CN(C(=O)COC(=O)c1ccc(Cl)c(S(=O)(=O)N2CCCCC2)c1)C1(C#N)CCCCC1 | -4% | -7% | ?
Cc1cc2c(cc1C)-c1c(ssc1=Nc1ccc(S(N)(=O)=O)cc1)C(C)(C)N2 | 20% | -2% | -10%
COc1ccc(C(=O)Nc2ncc(C)s2)cc1S(=O)(=O)N1CCOCC1 | -4% | 4% | -11%
CCCCC1(c2ccc(F)cc2)NC(=O)N(CC(=O)Nc2ccc(N3CCOCC3)cc2)C1=O (stereo not drawn) | 1% | 2% | ?
CCCCNc1c(-c2ccc(OC)c(SC3CCCCC3)c2)nc2cnccn12 | 8% | 3% | 0%
Cc1nn(Cc2ccccc2)c(C)c1CNC(=O)c1ccc(F)c(S(=O)(=O)N2CCOCC2)c1 | 11% | -1% | -27%
CCN(CC)c1ccc(NC(=O)C2=CC=CN3CCS(=O)(=O)N=C23)cc1 | -18% | 0% | 44%[activator]
CC1(C)C2CCC(C2)C1(C)NC(=O)CNCc1cccs1 (stereo not drawn) | -7% | -1% | -19%
O=C(Cc1ccc([N+](=O)[O-])cc1)Nc1cccc(C(=O)N2CCOCC2)c1 | -7% | -5% | -9%
CCCCNC(=O)C(CC)(ONc1ccccc1C(F)(F)F)c1ccccc1 (stereo not drawn) | -7% | -3% | -13%
Cc1cccc2nc(C(=O)Nc3cc(Cl)ccc3-n3cncn3)cn12 | 1% | -3% | 33%[activator]
NC(=O)Nc1ccc(C(=O)OCC(=O)N2CCCC2=O)cc1 | 0% | -6% | 30%[activator]
CN(c1cccc(Cl)c1)S(=O)(=O)c1cccc(C(=O)NCc2ccncc2)c1 | -13% | 5% | -30%
Cc1nnc(SCC(=O)NC2CCCCCC2)n1N | 7% | -1% | -5%
COC(=O)[C@@]1(C)[C@H]2C(=O)N(Cc3ccccc3)C(=O)[C@H]2[C@H]2CN=C(SCc3ccc(C)cc3)N21 | -10% | 3% | ?
COc1ccc(S(=O)(=O)N(C)C[C@H]2Oc3c(NS(=O)(=O)c4ccc(F)cc4)cccc3C(=O)N([C@H](C)CO)C[C@@H]2C)cc1 | -15% | -4% | 0%

Complete entries, quoted from the list:
O=C(O)c1n[nH]c2c1CC(C1CCCCC1)CC2 (stereo not drawn) is listed with RE007 growth inh = 3%; SARS PLP yeast = 4%; StopGo reporter = -21%
Cc1cccc2nc(C(=O)Nc3cc(Cl)ccc3-n3cncn3)cn12 is listed with RE007 growth inh = 1%; SARS PLP yeast = -3%; StopGo reporter = 33%[activator]

Later entries
SMILES | RE007 growth inh | SARS PLP yeast | StopGo reporter
Cc1sc2ncnc(SCC(=O)NC(C)C(C)C)c2c1C (stereo not drawn) | 1% | -5% | -18%
NC(=O)/C(N=Nc1ccccc1)=N/Nc1ccccc1 | 6% | -3% | -5%
CCN(C(=O)CSc1nc(N)cc(=O)[nH]1)C1CCS(=O)(=O)C1 (stereo not drawn) | -26% | 1% | -6%
CC(C)C(NC(=O)Cc1ccccc1)C(=O)N1CCN(c2cccc(Cl)c2)CC1 (stereo not drawn) | -16% | -5% | ?
O=C1c2ccc(-c3ccc(F)cc3OCc3ccccc3)cc2S(=O)(=O)c2cccc(C(=O)N3CCCC3)c21 | -12% | -13% | -4%
Cc1noc(C)c1S(=O)(=O)Nc1ccc2c(c1)C(=O)N([C@H](C)CO)C[C@@H](C)[C@@H](CN(C)Cc1ccc3c(c1)OCO3)O2 | 3% | -4% | 43%[activator]
COC(=O)C(CCCN1C(=O)c2ccccc2C1=O)(NC(C)=O)c1nn[nH]n1 (stereo not drawn) | -18% | 3% | -28%
O=C(COC(=O)c1cccnc1Cl)NCc1ccc(F)cc1 | 0% | 8% | 8%
O=C1CCCC/C=C\C[C@H](CC(=O)N(CCO)Cc2ccccc2)C(=O)N[C@@H](Cc2ccccc2)CO1 | 1% | 0% | -9%
COc1ccc(CC(=O)OCC(=O)Nc2ccc(OC(F)F)cc2)cc1OC | 2% | -3% | -2%
CCc1ccc(N2CC(C(=O)OCc3nc4ccsc4c(=O)[nH]3)CC2=O)cc1 (stereo not drawn) | 5% | -1% | -14%
CCc1ccc(OCC(=O)N2CCN(c3ccccc3F)CC2)cc1 | -11% | 0% | -5%
C[C@H](CO)N1C[C@H](C)[C@@H](CN(C)C(=O)Nc2ccc3c(c2)OCO3)Oc2c(NS(=O)(=O)c3cn(C)cn3)cccc2C1=O | -5% | 2% | -4%
O=C(Nc1ccncc1)c1ccc2c(c1)S(=O)(=O)c1ccccc1C2=O | -2% | 0% | ?
COc1ccc(CCNC(=O)c2ccc(Cl)c(S(=O)(=O)N3CCCC3)c2)cc1 | -1% | 2% | ?
CCn1nc(C(=O)Nc2cccc(S(=O)(=O)N3CCCC3)c2)c2ccccc2c1=O | -1% | 10% | 4%
CCN(CC(=O)Nc1c(F)cccc1F)C(=O)c1ccc2c(c1)OCO2 | -2% | 2% | -10%
CCCCCCCNC(=O)C1(CC2CC(c3cccc(Br)c3)=NO2)CCN(C(=O)Cc2ccc(F)cc2)CC1 (stereo not drawn) | 2% | 2% | -18%
COc1ccc(-c2ccc3c(c2)S(=O)(=O)c2cccc(C(=O)NCc4ccccc4Cl)c2C3=O)cc1OC | -4% | 3% | 5%
CCOc1ccc(S(=O)(=O)Nc2cc(NS(=O)(=O)c3ccc(OCC)cc3)cc(C(=O)O)c2)cc1 | 1% | 1% | -17%
COc1ccc(NC(=O)Nc2ccc3c(c2)C(=O)N([C@H](C)CO)C[C@H](C)[C@@H](CN(C)C(=O)NC2CCCCC2)O3)cc1 | -26% | -2% | -16%
Cc1nn(-c2ncc(C(F)(F)F)cc2Cl)c(=O)n1-c1c(F)cccc1F | -6% | 2% | 10%
CCCNC(=O)CCNC(=O)[C@H](O)C(C)(C)CO | 4% | -11% | 17%
Cc1ccc(/C=N/NC(=O)CNC(=O)c2cccs2)o1 | -2% | -1% | 1%
CC1CC(C)CN(C(=O)CSc2ccsc2[N+](=O)[O-])C1 (stereo not drawn) | -4% | -1% | 24%
Next structures
SMILES | RE007 growth inh | SARS PLP yeast | StopGo reporter
CC(C)c1nnc(NC(=O)C2CCCN2C(=O)Nc2ccccc2[N+](=O)[O-])s1 (stereo not drawn) | -3% | 0% | -12%
Nc1ncnc2c1ncn2[C@@H]1O[C@H](CNC(=O)[C@@H](N)C2CCCCC2)[C@@H](O)[C@H]1O | 8% | 8% | -20%
Cc1cc(C)n2nc(C(=O)OCC(=O)NCc3ccccc3)nc2n1 | 4% | 1% | -6%
CC1CCCC(NC(=O)C2CCN(S(=O)(=O)N3CCCCC3)CC2)C1C (stereo not drawn) | -19% | 1% | -19%
O=C(c1ccc(S(=O)(=O)NCC2CCCO2)cc1)N1CCN(c2cccc(Cl)c2)CC1 (stereo not drawn) | -1% | 0% | ?
COc1ccc(C(=O)OCC(=O)Nc2c(C)n(C)n(-c3ccccc3)c2=O)cc1 | -1% | 2% | -7%
Fc1ccc(CSc2nnc3ccc(-c4ccncc4)nn23)cc1 | 8% | -18% | -14%
O=C(CCS(=O)(=O)c1ccccc1F)Nc1ccc(N2CCN(Cc3ccccc3)CC2)cc1 | 1% | 0% | -6%
O=C1c2ccccc2[C@@H]2C[C@@H](O)[C@H](Nc3cccc(Cl)n3)CCN12 | -10% | 1% | -19%
CCC(=O)c1ccc(OCC(=O)Nc2cccc(S(=O)(=O)N(C)c3ccccc3)c2)cc1 | 2% | 1% | ?
Cc1ccc(-c2nc(-c3ccc(Cl)cc3)sc2CC(=O)O)c(C)c1 | -7% | -1% | -1%
COc1ccccc1NC(=O)C(C)N1C(=O)C2CCCCC2C1=O (stereo not drawn) | -9% | 2% | -8%
COC(=O)[C@@]1(Cc2ccccc2)[C@H]2C(=O)N(C)C(=O)[C@H]2[C@H]2CN=C(SCC3CC3)N21 | -21% | 7% | -14%
O=C(CN1CCN(S(=O)(=O)c2cccs2)CC1)NCC1CCCCC1 | -12% | 1% | -17%
COC(=O)NCN1C(=O)C2C3C=CC(C3)C2C1=O (stereo not drawn) | 5% | 15% | -9%
S=C(Nc1ccccc1Oc1ccccc1)NC1CCCC1 | 9% | -1% | 89%[activator]
CCOC(=O)c1ccc(NC(=S)NN2CCN(C)CC2)cc1 | 8% | -1% | -21%
COc1ccc2cc1Oc1ccc(cc1)C[C@H]1c3c(cc(OC)c4c3Oc3c(ccc5c3[C@H](C2)N(C)CC5)O4)CCN1C | -4% | -6% | ?
N#CC1(c2ccccc2)CCC(=NNS(=O)(=O)c2ccccc2)CC1 (stereo not drawn) | 19% | 2% | 4%
C[C@H]1CN([C@@H](C)CO)C(=O)c2cccc(NC(=O)c3ccc(-c4nccs4)cc3)c2O[C@@H]1CN(C)C(=O)Nc1cccc2ccccc12 | -5% | 0% | -27%
O=C(C[C@H]1C[C@H](C(=O)N2CCOCC2)[C@@]2(CCC3CCCC3)c3[nH]c4ccc(Cl)cc4c3CCN2C1=O)NCc1ccco1 | 0% | 8% | ?
Cc1cccc2nc(CSc3ncccc3C(=O)O)cn12 | -12% | 1% | -6%
COC(=O)C1=C(c2ccc(-c3ccccc3)c(F)c2)C[C@@H]2CC[C@H]1N2C(=O)NCc1cc(C)oc1C(F)(F)F | -18% | 0% | 0%
O=C(COC(=O)CNC(=O)c1ccc(Cl)cc1)Nc1ccc(Cl)cn1 | 7% | -6% | -10%
Cc1ccc(S(=O)(=O)N2[C@@H](c3cccc(Cl)c3)C(C(=O)O)=CC[C@H]2c2ccc3c(c2)OCO3)cc1 | -6% | 0% | 12%
Next section:
SMILES | RE007 growth inh | SARS PLP yeast | StopGo reporter
C[C@H](CO)N1C[C@H](C)[C@@H](CN(C)S(C)(=O)=O)Oc2ccc(N(C)C)cc2C1=O | 11% | -5% | -4%
Cc1ccc2nc(-c3ccccc3)c(CC(=O)O)c(C(=O)O)c2c1 | 15% | 0% | -5%
O=C(OCC(=O)N1CCN(C(=O)c2ccco2)CC1)c1ccc(Cl)cc1 | -5% | 2% | -15%
O=C(NC1=NCCS1)c1ccc(F)c(S(=O)(=O)N2CCOCC2)c1 | -6% | -1% | -8%
Cc1ccc(NC(=O)NC(=O)COc2ccccc2C(N)=O)c(C)c1 | 5% | 4% | 7%
C[C@H]1COC(=O)[C@@H](NC(=O)OCC2c3ccccc3-c3ccccc32)C/C=C\C[C@H](CC(=O)NCCO)C(=O)N1 | 3% | -2% | -8%
C=C(C=O)CC1CC(O)[C@]2(C)OC3C[C@@H]4OC5C[C@]6(C)O[C@]7(C)CCC8OC9C[C@]%10(C)OC(/C(C)=C\CO)C(O)CC%10OC9CC(C)C8OC7CC6O[C@]5(C)C/C=C\C4OC3CC2O1 (stereo partly drawn) | 2% | 1% | -17%
COC(=O)c1cc(C(=O)OCC(=O)NC(=O)NCc2ccccc2)cc([N+](=O)[O-])c1 | -14% | -4% | -19%
CCC(CO)Oc1cc(NCc2cccc(C(F)(F)F)c2)c2ncn(C(C)C)c2c1 (stereo not drawn) | -12% | 0% | -18%

Structures shown so far with a CF3 group, in the order listed:
SMILES | RE007 growth inh | SARS PLP yeast | StopGo reporter
CCCCNC(=O)C(CC)(ONc1ccccc1C(F)(F)F)c1ccccc1 (stereo not drawn) | -7% | -3% | -13%
Cc1nn(-c2ncc(C(F)(F)F)cc2Cl)c(=O)n1-c1c(F)cccc1F | -6% | 2% | 10%
COC(=O)C1=C(c2ccc(-c3ccccc3)c(F)c2)C[C@@H]2CC[C@H]1N2C(=O)NCc1cc(C)oc1C(F)(F)F | -18% | 0% | 0%
CCC(CO)Oc1cc(NCc2cccc(C(F)(F)F)c2)c2ncn(C(C)C)c2c1 (stereo not drawn) | -12% | 0% | -18%

An excerpt, so the mix of outcomes need not match the whole.
